FPR binder: human FPR ligand, with FPRL1 counter-screen | P21462 | FPR-expressing cells, fluorescent ligand binding, flow cytometry | inhibition, %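 (tested at 6.7 µM)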 | 0.74% of 24,000 active | AID 440;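 note: 0% = buffer wells and 100% = receptor blocker peptide wells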
Target sequence (P21462 whole entry, looked up): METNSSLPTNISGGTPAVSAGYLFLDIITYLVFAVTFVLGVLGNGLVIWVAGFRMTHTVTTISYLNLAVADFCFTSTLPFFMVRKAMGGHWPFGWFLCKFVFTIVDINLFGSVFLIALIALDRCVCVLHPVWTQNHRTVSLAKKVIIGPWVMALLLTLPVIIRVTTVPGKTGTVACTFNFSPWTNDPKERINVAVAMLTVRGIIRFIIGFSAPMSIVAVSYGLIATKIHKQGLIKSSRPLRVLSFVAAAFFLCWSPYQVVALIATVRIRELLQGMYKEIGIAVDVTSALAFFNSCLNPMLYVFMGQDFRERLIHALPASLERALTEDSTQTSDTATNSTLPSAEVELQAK
FPRL1 binder: human FPRL1 ligand, with FPR counter-screen | P25090 | 0.3% of 24,000 active | FPRL1-expressing cells, fluorescent ligand binding inhibition, flow cytometry | inhibition, %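 (tested at 6.7 µM)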;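 note: 0% = buffer alone and 100% = receptor blocker peptide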
Target sequence (P25090 whole entry, looked up): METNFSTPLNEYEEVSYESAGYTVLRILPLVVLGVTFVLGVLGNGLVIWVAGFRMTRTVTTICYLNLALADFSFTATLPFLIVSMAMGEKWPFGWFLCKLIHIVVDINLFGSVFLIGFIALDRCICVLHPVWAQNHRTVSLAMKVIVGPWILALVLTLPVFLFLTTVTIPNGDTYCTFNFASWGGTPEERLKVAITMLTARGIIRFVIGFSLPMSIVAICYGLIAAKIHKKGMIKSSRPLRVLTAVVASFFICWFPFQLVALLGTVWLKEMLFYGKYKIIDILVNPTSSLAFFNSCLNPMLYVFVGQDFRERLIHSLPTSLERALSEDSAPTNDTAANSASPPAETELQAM
VCAM-1 imaging: inhibitors of TNFa-induced VCAM-1 surface display, imaging, high-content imaging, pooled HUVEC, TNFa stimulus (AID 456). HUVEC TNFa-induced VCAM-1 surface expression, immunofluorescence imaging; numbers were filed only for top-ranked candidate wells. inhibition, % at 5 µM, or IC50 in µM where a hit was titrated. 0.2% of 10,000 active;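 active = top tenth filtered wells with inhibition above zero that passed visual or statistical confirmation; inactive = the rest, including hits rejected on review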;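 note: 0% = stimulated vehicle wells and 100% = unstimulated cells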
VCAM-1 augmentation: boosters of cytokine-driven VCAM-1 levels – imaging, high-content imaging, pooled HUVEC, TNFa stimulus (AID 457) | Pooled HUVEC, TNFa-induced VCAM-1 immunofluorescence imaging; hits of this screen are not shown here | calls only | 0.2% of 10,000 active;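 active = a top-ranked rise in VCAM-1 staining upheld on image or statistical review; inactive = the rest, including candidates rejected on review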;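 note: compounds tested at 5 µM in the well; cells exposed to compound for 24 hours before fixing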
VCAM-1 inhibition: inhibitors of TNFa-induced VCAM-1 surface display, cell-based, plate reader, pooled HUVEC, TNFa stimulus (AID 454) | HUVEC TNFa-induced VCAM-1 surface immunofluorescence, plate reader; numbers were filed only for top-ranked candidate wells | inhibition, % at 5 µM | 0.2% of 10,000 active;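 active = compound among top-ranked inhibitors of TNF-induced VCAM-1 adhesion protein staining, with the hit upheld by image or statistical review; inactive = the rest, including hits rejected on review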;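 note: 0% = TNFa with vehicle and 100% = cells without TNFa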
An asterisk follows results filed as active; i = inactive; . = not tested or not shown.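 Rule for the calls, unless noted: active = mean above 30%; inconclusive = self-fluorescent; inactive = the rest.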 A portion of the library (hit frequency here may not be typical).

The opening 3 compounds (preview)
SMILES	FPR binder	FPRL1 binder	VCAM-1 imaging	VCAM-1 augmentation	VCAM-1 inhibition
CC(=O)OCC(=O)[C@@]1(O)CC[C@H]2[C@@H]3CCC4=CC(=O)C=C[C@]4(C)[C@H]3[C@@H](O)C[C@@]21C	2	11	i	i	i
O=C(NCc1cccs1)C1CCCN(S(=O)(=O)c2cccc3cccnc23)C1 (configuration not stated)	-1	-9	.	.	.
O=C1N(CCCCN2C(=O)C3(OCCO3)c3ccccc32)c2ccccc2C12OCCO2	-1	5	i	i	i

This part in full, from the start:
SMILES	FPR binder	FPRL1 binder	VCAM-1 imaging	VCAM-1 augmentation	VCAM-1 inhibition
CC(=O)OCC(=O)[C@@]1(O)CC[C@H]2[C@@H]3CCC4=CC(=O)C=C[C@]4(C)[C@H]3[C@@H](O)C[C@@]21C	2	11	i	i	i
O=C(NCc1cccs1)C1CCCN(S(=O)(=O)c2cccc3cccnc23)C1 (configuration not stated)	-1	-9	.	.	.
O=C1N(CCCCN2C(=O)C3(OCCO3)c3ccccc32)c2ccccc2C12OCCO2	-1	5	i	i	i
COc1ccc(N2CCN(C(=O)c3cn(C)c(=O)c4c3c3ccccc3n4C)CC2)cc1	10	3	.	.	.
COC(=O)C1(S(=O)(=O)c2cc(Br)cc3c2N(C(C)=O)CC3)CC1	-9	-1	.	.	.
O=C(CSc1nccn1Cc1ccccc1)Nc1nccs1	0	-2	i	i	i
CSCCC(NS(=O)(=O)c1cccs1)C(=O)NCc1cccs1 (configuration not stated)	-4	-8	.	.	.
CCCc1c(C(=O)OCC)[nH]c2c1C(=O)CCC2	1	4	.	.	.
COc1ccc(Br)cc1C(=O)Nc1nnn(C)n1	-8	4	i	i	i
COc1cccc(-c2cc(C(=O)NCCN3CCOCC3)no2)c1	3	2	.	.	.
CCCC(=O)NC(Nc1ccc(S(=O)(=O)Nc2ncccn2)cc1)(C(=O)OCC)C(F)(F)F (configuration not stated)	3	-1	.	.	.
O=CNCC(=O)NCCc1ccc(Cl)cc1	-2	0	.	.	.
CCSc1nnc(NC(=O)C2CCCCC2C(=O)OCC(F)(F)C(F)F)s1 (configuration not stated)	4	4	.	.	.
COc1ccc(NC(=O)CCS(=O)(=O)c2cccc3nonc23)c(OC)c1	4	19	.	.	.
CCOc1ccc(NC(=O)CN(C)CC(=O)NC2CCCc3ccccc32)cc1OCC (configuration not stated)	4	-7	i	i	i
CNC[C@H](O)c1cccc(O)c1	-3	-4	i	i	i
Cc1ccc(C(=O)Nc2c3c(nn2C(C)(C)C)CS(=O)(=O)C3)cc1C	-8	9	.	.	.
CCOC(=O)c1sc(NC(=O)CNC(=O)Cn2cnc3sc(C)c(C)c3c2=O)nc1C	0	-5	i	i	i
Cn1c(Cn2c(=O)sc3ccccc32)nnc1SCC(=O)N1CCN(c2ccccc2)CC1	-1	-2	.	.	.
Cc1ccccc1CS(=O)(=O)Cc1ccc(C(=O)NCC2CCCO2)o1 (configuration not stated)	0	9	.	.	.
CCCC(=O)Nc1cccc(-c2cn3ccsc3n2)c1	2	-5	.	.	.
CC(=O)Nc1cccc(-c2nnc(-c3ccccc3)o2)c1	-4	-2	i	i	i
CCn1cc(C(=O)NCc2ccc(Cl)cc2)c(=O)c2cc(S(=O)(=O)N3CCOCC3)ccc21	6	-4	.	.	.
CC(C)N(CCCNC(=O)CC1Oc2ccccc2NC1=O)Cc1ccccc1 (configuration not stated)	-3	4	.	.	.
Cc1cc(NC(=O)CSc2nc3ccccc3n2CC(=O)N2CCCCC2)no1	-2	-1	i	i	i

3 compounds out of the list, arranged by formula weight, largest number first.
SMILES	FPR binder	FPRL1 binder	VCAM-1 imaging	VCAM-1 augmentation	VCAM-1 inhibition
O=C(NCc1cccs1)C1CCCN(S(=O)(=O)c2cccc3cccnc23)C1 (configuration not stated)	-1	-9	.	.	.
Cc1ccc(C(=O)Nc2c3c(nn2C(C)(C)C)CS(=O)(=O)C3)cc1C	-8	9	.	.	.
CCCC(=O)Nc1cccc(-c2cn3ccsc3n2)c1	2	-5	.	.	.

(list continues)
SMILES	FPR binder	FPRL1 binder	VCAM-1 imaging	VCAM-1 augmentation	VCAM-1 inhibition
CCOc1cc(C2CC(=O)NC3=C2C(=O)C(C(=O)OC)C(C)C3)cc(Cl)c1O (configuration not stated)	-4	-1	.	.	.
COc1ccc(OC(C)C(=O)N2CC(C)OC(C)C2)cc1 (configuration not stated)	8	8	i	i	i
CCC(C)C(=O)Nc1nc2c(s1)C(=O)CC(C)(C)C2 (configuration not stated)	-1	-2	i	i	i
CC(=O)N1CCCc2cc(S(=O)(=O)NCc3ccc(C)cc3)ccc21	-2	2	.	.	.
O=C(CCn1c(=S)[nH]c2cc3c(cc2c1=O)OCO3)NCCN1CCCC1	-5	0	.	.	.
COCCCNC(=O)CCc1nc(-c2ccccc2Cl)no1	2	7	i	i	i
Cc1ccc(-c2cc(C)nc3ncnn23)cc1	2	2	.	.	.
COc1ccc(C(=O)O)cc1NS(=O)(=O)c1cccc2nsnc12	0	5	.	.	.
COc1ccc(NC(=O)N2CCN(c3nc(-c4cccc(OC)c4)cs3)CC2)cc1	10	-2	i	i	i
Cc1nc2ccccc2c2oc(C(=O)N3CCc4ccccc43)cc12	38*	26	.	.	.
C/C=C/Cn1c(SCCCc2ccccc2)nc2c1c(=O)[nH]c(=O)n2C	-4	-9	i	i	i
Cc1oc(-c2ccc(Cl)cc2)nc1CS(=O)CC(=O)NCCN1CCCC1 (configuration not stated)	0	1	.	.	.
C=CCOC(=O)C1=C(C)OC(N)=C(C#N)C1c1ccc(F)cc1 (configuration not stated)	-3	0	.	.	.
CCC1(c2ccccc2)C(=O)NCNC1=O	8	8	i	i	i
CN(C(=O)c1cc2n(n1)C(C(F)(F)F)CC(c1ccco1)N2)c1ccc(OC(F)(F)F)cc1 (configuration not stated)	-5	2	.	.	.
O=C(NCc1ccccc1)c1ccc(F)c(S(=O)(=O)N2CCOCC2)c1	-5	-10	.	.	.
CCOC(=O)c1c(C)c(C(=O)NCCCOC(C)C)c(C)n1C	-4	-4	.	.	.
Cc1[nH]c(=O)c(C#N)c(C)c1Br	-2	-4	.	.	.
COc1cc(C)c(S(=O)(=O)NCc2ccc3c(c2)OCO3)cc1C	-10	-11	.	.	.
COCCNC(=O)NC(=O)COC(=O)Cc1ccc2c(c1)OCCO2	-3	3	i	i	i
COc1cc(OC)c(C2N(c3ccc(Cl)c(Cl)c3)C(=O)C3CCCN32)cc1OC (configuration not stated)	2	5	.	.	.
COC(=O)CN1C(=O)C2(C(C#N)=C(N)Oc3cc(C)oc(=O)c32)c2ccccc21 (configuration not stated)	-1	-2	.	.	.
COc1cccc(NC(=O)c2nnn(Cc3ccc(Br)cc3F)c2N)c1	-2	0	i	i	i
Cn1c(CSc2nnc(SCc3ccccc3)s2)nc2ccccc21	4	-3	.	.	.
CCCN(CCC)CCNC(=O)c1cc2c(C)nc3ccccc3c2o1	-2	5	.	.	.
(continued)
SMILES	FPR binder	FPRL1 binder	VCAM-1 imaging	VCAM-1 augmentation	VCAM-1 inhibition
CCCCNC(=O)CSc1nc2cc3c(cc2c(=O)n1CCCN(CC)CC)OCO3	-1	-3	.	.	.
C=CCOc1cccc(C2/C(=C(\O)c3ccc(F)cc3)C(=O)C(=O)N2CCN(C)C)c1 (configuration not stated)	-5	-2	i	i	i
CCC(C)(C(=O)NC1CCCCC1)N(Cc1ccco1)C(=O)c1cnccn1 (configuration not stated)	0	1	i	i	i
O=C(C1CC1(c1ccccc1)c1ccccc1)N1CCOCC1 (configuration not stated)	18	7	i	i	i
O=C(NCC1CCCCN1)c1cc(OCC(F)(F)F)ccc1OCC(F)(F)F (configuration not stated)	5	-1	i	i	i
COc1cccc(-c2cc(C(=O)Nc3ccccc3SC)no2)c1	-4	-6	.	.	.
COc1ccc(CCNC(=O)C2CCN(S(=O)(=O)N3CC(C)CC(C)C3)CC2)cc1OC (configuration not stated)	2	2	.	.	.
O=[n+]1c2c(n([O-])c3cc(F)c(F)cc31)CCCC2	7	4	.	.	.
Cc1ccc(N(CC(=O)Nc2cccc(C)c2)S(=O)(=O)c2cccc3nonc23)cc1	-5	0	.	.	.
CC(Cc1ccc(O)c(O)c1)C(C)Cc1ccc(O)c(O)c1 (configuration not stated)	-2	6	i	i	i
CCC(C)(C(=O)NC1CCCC1)N(C(=O)c1cnccn1)c1ccccc1 (configuration not stated)	2	0	.	.	.
CCN(CCCNC(=O)CC(C(=O)N1CCc2ccccc21)n1ccnc1)c1cccc(C)c1 (configuration not stated)	4	-5	.	.	.
O=C(CCn1c(=O)oc2ccccc21)NC1=NCCS1	-3	0	.	.	.
CSCC[C@@H](C(=O)O)N1Cc2ccccc2C1=O	-1	-9	.	.	.
O=C(Nn1c(C2CC2)nc2ccccc2c1=O)c1ccco1	2	5	i	i	i
COc1ccc(N2CCN(c3cc(C)c4ccc(O)cc4n3)CC2)cc1	-3	-9	.	.	.
CCS(=O)(=O)N1CCCC(c2nc(-c3cccc(OC)c3)no2)C1 (configuration not stated)	7	-6	i	i	i
O=C(NC1(C(F)(F)F)N=C2SCCN2C1=O)c1ccco1 (configuration not stated)	10	-1	.	.	.
CCCCN(CCCNC(=O)C1CCN(S(=O)(=O)N2CCOCC2)CC1)c1ccccc1	1	-2	.	.	.
FC(F)(F)c1cc(-c2ccco2)nc(NCc2cccs2)n1	3	-2	.	.	.
CCN(CCCNC(=O)C1CCN(S(=O)(=O)N2CCOCC2)CC1)c1cccc(C)c1	-2	-2	.	.	.
Cn1c(C(=O)NCc2cccnc2)cc2sccc21	-14	5	i	i	i
CC1CN(C(=O)CCn2c(=O)oc3ccccc32)CC(C)O1 (configuration not stated)	-1	-3	.	.	.
CC1CCc2c(C(=O)NCCN3CCOCC3)csc2C1 (configuration not stated)	0	0	.	.	.
CCN=C1SC(CC(=O)Nc2sc(C)c(C)c2C(=O)OC)C(=O)N1CC (configuration not stated)	-8	-6	.	.	.

The last five compounds of the section before open the next one.
SMILES	FPR binder	FPRL1 binder	VCAM-1 imaging	VCAM-1 augmentation	VCAM-1 inhibition
CCN(CCCNC(=O)C1CCN(S(=O)(=O)N2CCOCC2)CC1)c1cccc(C)c1	-2	-2	.	.	.
Cn1c(C(=O)NCc2cccnc2)cc2sccc21	-14	5	i	i	i
CC1CN(C(=O)CCn2c(=O)oc3ccccc32)CC(C)O1 (configuration not stated)	-1	-3	.	.	.
CC1CCc2c(C(=O)NCCN3CCOCC3)csc2C1 (configuration not stated)	0	0	.	.	.
CCN=C1SC(CC(=O)Nc2sc(C)c(C)c2C(=O)OC)C(=O)N1CC (configuration not stated)	-8	-6	.	.	.
COc1ccc(C2C(C(=O)NCCN(C)C)c3ccccc3C(=O)N2C)cc1OC (configuration not stated)	0	-1	.	.	.
CN(Cc1cnn(C)c1)C(=O)c1cc2ccccc2oc1=O	2	4	i	i	i
Cc1cccc(CCNC(=O)C2CCCN(S(=O)(=O)c3cnc[nH]3)C2)c1 (configuration not stated)	4	7	i	i	i
CCOC(=O)N1CCN(c2c(NCCN3CCCCC3CC)c(=O)c2=O)CC1 (configuration not stated)	-4	2	.	.	.
CC(C)Cc1cc(C(=O)NCCCN2CCOCC2)no1	-4	-2	.	.	.
CN(C)c1ccc(NC(=O)c2cc3c(=O)n4ccccc4nc3n2C)cc1	0	-2	i	i	i
CCn1cc(C2=NOC(C(=O)Nc3cccc(C(C)=O)c3)C2)c(C)n1 (configuration not stated)	5	9	.	.	.
O=C(NCc1ccc2c(c1)OCO2)C1CCC(CNc2c(N3CCCCC3)c(=O)c2=O)CC1 (configuration not stated)	-3	2	i	i	i
Cc1cc(C)c(S(=O)(=O)Nc2cccnc2)c(C)c1	-2	-8	i	i	i
O=C(CSc1nnnn1-c1ccccc1Cl)Nc1ccc2c(c1)OCCO2	2	-3	i	i	i
COc1cc(C(=O)Nc2ccc(-c3nc4cc(C)ccc4o3)c(O)c2)cc(OC)c1OC	-4	3	.	.	.
Cc1nnc(SC(=O)N2c3ccccc3Sc3ccccc32)s1	6	9	i	i	92*
Cc1cc(C)c2c(=O)n(CC(=O)NCCCN3CCN(c4ccccc4F)CC3)sc2n1	-23	-8	i	i	i
Cc1cc(NC(=O)CSc2nnc(-c3ccc4c(c3)OCCO4)o2)no1	-8	3	.	.	.
CCOC(=O)CNC(=O)Cn1c(C)cc2ccccc2c1=O	4	0	.	.	.
COCCCN1C(=O)C(=O)/C(=C(/O)c2ccc(OCC(C)C)cc2)C1c1cccnc1 (configuration not stated)	-10	-4	.	.	.

Screening data as filed in PubChem.
